KCNQ2 pot: potentiators of rat KCNQ2 potassium channel; Potassium voltage-gated channel subfamily KQT member 2 (Rattus norvegicus), O88943; CHO-K1 KCNQ2, FluxOR thallium flux fluorescence; hits give high values; B-score at 10 µM; actives 0.54% (n = 310,000);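 active = fluorescence ratio B-score at least 3 SD of library B-scores, with initial fluorescence B-score within 3 SD, cut at about 5.3 in these data; same plate scores as AID 2156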;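 also: B-score of peak minus minimum over baseline fluorescence ratio after K+ and Tl+ stimulus; positive B-score means potentiation of KCNQ2 with more thallium influx and brighter signal; only the inactives scoring about 0 or higher are listed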
Target sequence (O88943 whole entry, looked up): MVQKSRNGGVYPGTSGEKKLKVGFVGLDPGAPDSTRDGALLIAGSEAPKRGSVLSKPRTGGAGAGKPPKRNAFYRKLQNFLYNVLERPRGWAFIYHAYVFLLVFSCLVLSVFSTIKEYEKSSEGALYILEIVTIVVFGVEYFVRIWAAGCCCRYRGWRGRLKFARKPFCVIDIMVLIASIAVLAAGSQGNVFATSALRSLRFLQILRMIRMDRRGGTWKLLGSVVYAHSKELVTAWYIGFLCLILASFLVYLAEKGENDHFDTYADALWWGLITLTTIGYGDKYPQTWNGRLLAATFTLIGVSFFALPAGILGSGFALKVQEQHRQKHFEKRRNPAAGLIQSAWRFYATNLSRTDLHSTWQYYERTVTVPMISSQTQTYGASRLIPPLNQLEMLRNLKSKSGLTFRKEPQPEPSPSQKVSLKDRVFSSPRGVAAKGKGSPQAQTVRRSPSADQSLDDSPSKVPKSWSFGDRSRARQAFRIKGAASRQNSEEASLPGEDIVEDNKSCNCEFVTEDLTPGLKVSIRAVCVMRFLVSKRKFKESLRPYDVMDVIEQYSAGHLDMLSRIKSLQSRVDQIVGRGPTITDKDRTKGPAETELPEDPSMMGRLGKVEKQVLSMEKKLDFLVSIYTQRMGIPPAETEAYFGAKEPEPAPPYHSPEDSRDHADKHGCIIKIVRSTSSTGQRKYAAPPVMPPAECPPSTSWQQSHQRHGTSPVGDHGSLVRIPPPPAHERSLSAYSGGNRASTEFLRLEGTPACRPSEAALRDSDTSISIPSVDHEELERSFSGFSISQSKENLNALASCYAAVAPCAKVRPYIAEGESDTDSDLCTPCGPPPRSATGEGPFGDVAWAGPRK
KCNQ2 pot baseline: further read-out of KCNQ2 pot, marked with its call; B-score; compound at 10 µM; measured here: initial fluorescence intensity artifact check;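 brightness before thallium and not channel activity; 0 = typical well and far values either way flag optical interference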
An asterisk follows results filed as active.

SMILES	KCNQ2 pot	KCNQ2 pot baseline
COc1ccc(N(C(=O)Cn2nnc(-c3ccc(Cl)cc3)n2)C(C(=O)NCC2CCCO2)c2ccc(C)cc2)cc1 (configuration not stated)	0.18	0.09
COc1cccc(N2CCN(C(=O)c3ccc(CS(=O)Cc4ccc(Cl)cc4)o3)CC2)c1 (configuration not stated)	0.54	0.04
Cc1ccc(-c2csc3ncn(CC#N)c(=O)c23)cc1	0.11	0.17
Clc1cc(Cl)c2nc(N3CCOCC3)sc2c1	1.23	1.53
Cc1cccc(-c2cc3nc(C)cc(NCCCN(C)C)n3n2)c1	0.05	-1.12
Cc1nc(N2CCN(S(=O)(=O)c3ccc(F)cc3)CC2)c2c(C)c(C)sc2n1	1.18	0.73
CC(=O)Nc1nnc(Cc2c[nH]c3ccccc23)s1	3.36	0.03
COc1ccc2cc(CO)c(Cl)nc2c1	2.27	0.05
N#Cc1cc(S(=O)(=O)c2ccc(F)cc2)c(N)[nH]c1=O	0.77	-0.4
COc1ccc(-c2ccc(SCC(=O)N3CCOCC3)nn2)cc1OC	1.12	-1.51
Cc1ccccc1Cn1nnc(C(=O)Nc2cccc(C)c2C)c1N	0.45	0.44
C=CCn1c(=S)[nH]c2sc3c(c2c1=O)CCCC3	11.2*	-0.14*
CCOc1ccccc1NC(=O)Cn1c(=O)oc2ccccc21	0.12	0.01
Cc1cc(C(=O)N/N=C/c2cc(N=Nc3ccccc3)ccc2O)n[nH]1	2.92	-0.25
COc1ccc(OCCC(=O)OCC(=O)NCc2ccccc2OC)cc1	0.34	0.07
Cc1ccc(C(=O)O/N=C\c2ccc(N3CCCCC3)c([N+](=O)[O-])c2)cc1	0.44	0.6
C/C=C(\C)C(=O)N1CC2(CC(c3cccc(NC(=O)COc4ccc(Cl)cc4)c3)=NO2)C[C@@H]1C(N)=O (some centres not stated)	0.53	-0.3
CC(=O)c1ccc(NC(=O)COC(=O)c2c3c(nc4ccccc24)/C(=C\c2cccs2)CCC3)cc1	2.91	-1.55
CC(=O)NCC(=O)N(Cc1ccco1)C1(C(=O)NC2CCCCC2)CCCCC1	0.7	-2.22
COc1cc2c(cc1OC)-c1cc(NC3CCCC3)nc(=O)n1CC2	0.67	-0.01
COCc1cc(C)nc(SCC(=O)Nc2ccc3c(c2)OCO3)c1C#N	0.22	-0.74
CCCCC(=O)Nc1nnc(C)s1	1.72	-1.63
COc1ccc(CCNS(=O)(=O)c2cn(C)c(=O)n(C)c2=O)cc1OC	0.72	-1.55
CCCC[C@@H]1CNCCN1CCc1cccc(F)c1	0.01	1.86
O=C(CNc1cccc(S(=O)(=O)N2CCCCC2)c1)Nc1ccccc1F	1.01	-0.84
CN(C1CCCCC1)S(=O)(=O)c1ccc(NC(=O)C2CCCCC2C(=O)O)cc1 (configuration not stated)	1.89	0.14
COc1ccccc1NC(=O)c1sc(NC(=O)c2ccco2)c(C#N)c1C	0.1	-1.72
Cc1ccc(/C=N/NC(=O)c2cccs2)s1	1.8	0.88
CCOC(=O)c1sc2nc(CSCC(=O)OCc3ccc(C(=O)OC)o3)[nH]c(=O)c2c1C	0.78	0.45
CC(C)CC(=O)Nc1nnc(S(=O)(=O)N2CCc3ccccc32)s1	0.62	0.49
COc1ccccc1C1C2=C(CC(C)(C)CC2=O)N(CC(=O)O)C2=C1C(=O)CC(C)(C)C2	0.37	-0.47
C=CCc1cccc(/C=N/NC(=O)c2ccccc2Br)c1O	9.59*	-0.32*
O=C(N/N=C/c1ccc(O)cc1)c1csc2ccccc12	2.14	-0.6
O=C(CC(c1ccccc1)c1cc(Cl)ccc1O)N1CCCC1 (configuration not stated)	1.33	-0.76
COc1ccccc1CN1CC(C(=O)N(C)Cc2[nH]c3ccccc3c2C)CCC1=O (configuration not stated)	0.91	0.07
O=C(COc1cccc2ccccc12)Nc1ccc(Cl)cc1C(=O)O	7.2*	2.73*
CN1C(C(=O)NCC2CC2)CC2Cn3c(nc4cc5ccccc5cc43)C21 (configuration not stated)	1.26	-1.99
COc1ccc(C(=O)N/C(=C\c2cn(C)c3ccccc23)C(=O)NCCCn2ccnc2)cc1	0.07	3.88
CC(=O)c1ccc(NC(=O)CSc2nc(=O)n(CCN3CCOCC3)c3c2CCC3)cc1	0.38	-0.45
COc1ccccc1-c1ccc(Nc2cccc(C(C)=O)c2)nn1	0.19	-0.8
NS(=O)(=O)c1ccc(NC(=S)NCc2ccco2)cc1	0.47	-0.09
CC(=O)c1ccc(OCc2ncc(C(F)(F)F)cc2Cl)cc1	0.56	0.53
Cc1ccc(Cc2ccc(C(=O)NNC(N)=S)o2)cc1	0.8	0.57
COc1ccc(NC(=S)N2CCCC2)cc1OC	0.68	-0.03
COc1ccc(C(=O)N/C(=C/c2ccco2)C(=O)NCc2ccco2)cc1	0.04	-0.85
O=C(O)C1=C[C@H](c2cccs2)C[C@H](OCCCCO)O1	0.24	0.42
Cc1ccc2nsnc2c1NC(=O)c1cccc([N+](=O)[O-])c1	0.39	-0.79
C=CCN1N=C(/C=C/c2ccc(OC)cc2)CCC1=O	0.36	-0.04
CC/C=C/C(=O)N1CC2(CC(c3cccc(NC(=O)c4ccccc4)c3)=NO2)C[C@@H]1C(N)=O (some centres not stated)	0.79	-2.8
CCCCCCCC(=O)N1CCN(c2cc3c(cc2F)c(=O)c(C(=O)O)cn3CC)CC1	0.68	0.13

Sorted by the number under KCNQ2 pot baseline (falling): three from the list above
canonical_smiles | KCNQ2 pot | KCNQ2 pot baseline
CC(=O)c1ccc(OCc2ncc(C(F)(F)F)cc2Cl)cc1 | 0.56 | 0.53
O=C(O)C1=C[C@H](c2cccs2)C[C@H](OCCCCO)O1 | 0.24 | 0.42
COc1ccc(NC(=S)N2CCCC2)cc1OC | 0.68 | -0.03

Going on with the list.
SMILES	KCNQ2 pot	KCNQ2 pot baseline
CCOc1ccc(N2CC(NC(=O)c3ccc4ccccc4c3)CC2=O)cc1 (configuration not stated)	0.07	-0.22
O=C(CN(Cc1ccc(Br)cc1)S(=O)(=O)c1ccccc1)NCC1CCCO1 (configuration not stated)	0.68	-1.04
COc1ccc(C(=O)C(C)[n+]2ccc(C)c3ccccc32)cc1[N+](=O)[O-] (configuration not stated)	1.95	-2.7
O=C(N/N=C/c1ccc(Br)s1)c1ccccc1[N+](=O)[O-]	1.95	0.01
COc1cccc(-c2nnn(CC(=O)N3CCCCC3)n2)c1	0.84	-1.75
Cc1ccc2nc(/N=C(\N)NC(=O)N3c4ccccc4Sc4ccccc43)nc(C)c2c1	0.54	0.19
Cc1cc(Cl)c(S(=O)(=O)NCc2ccccc2)cc1OCC(N)=O	0.55	0.69
O=C(CN1c2cccc3cccc(c23)S1(=O)=O)Nc1ccccc1F	0.45	0.62
CCCN(C(=O)C1CCN(S(=O)(=O)c2ccc(OC)c(OC)c2)CC1)C1CCS(=O)(=O)C1 (configuration not stated)	0.06	1.47
COc1ccc(S(=O)(=O)N2CCCCCC2)cc1C(=O)N(C)CC(=O)Nc1ccc(F)cc1	0.54	-0.27
Cc1nnc(SCc2cc(=O)[nH]c(N3CCN(C)CC3)n2)s1	0.89	3.16
C=CCc1cccc(CNc2nc3ccccc3n2CCC)c1O	0.36	-2.94
O=C1NC(c2ccccc2)=N/C1=C/c1ccco1	0.07	-2.16
O=C1COc2ccc3ccccc3c2CN1	0.68	-0.05
S=C(Nc1ccccn1)NC1CCCC1	0.44	-0.11
CCCc1cc(=O)oc2c(C)c(OC(C)C(=O)NCCN3CCOCC3)ccc12 (configuration not stated)	0.28	0.05
CC(=O)N(/N=C1\Sc2ccccc2C1=O)c1cccc(C)c1	1.23	0.03
CC(=O)Nc1ccc(S(=O)(=O)NC2(C(F)(F)F)C(=O)Nc3c2c(=O)[nH]c(=O)n3C)cc1 (configuration not stated)	2.23	0.53
CCCn1c(=O)c2c(nc3n2CCN3Cc2ccco2)n(C)c1=O	0.67	-0.05
COc1cc(NC(=O)CCc2nnc3ccc(N4CCN(c5cccc(OC)c5)CC4)nn23)cc(OC)c1	0.09	0.88
COCCCNC(=O)CCCn1c(=O)c2ccccc2n(Cc2cccc([N+](=O)[O-])c2)c1=O	2.09	-0.18
COc1ccc(-c2ccnc(-c3ccc(O)cc3)n2)cc1	0.15	-0.05
O=C(CCc1nnc(C2CCCCC2)o1)NCCCOc1cccnc1	0.02	0.81
Fc1ccc(N2CCN(C(c3cccs3)c3nnnn3C3CCCC3)CC2)cc1 (configuration not stated)	0.97	-2.44
CCCS(=O)(=O)N1CCCC(C(=O)NCCCN(C)Cc2ccccc2)C1 (configuration not stated)	0.41	2.15
O=C(CCc1nc2ccccc2[nH]c1=O)OCC(=O)N1CCc2ccccc21	0.03	0.56
Cc1ccn2cc(C(=O)N3CCCC(Nc4ccc(F)cc4)C3)nc2c1 (configuration not stated)	0.03	0.02
O=C(Nc1nnc(-c2cccnc2)o1)c1ccccc1Cl	1	-1.28
O=C(O)CCC(NC(=O)OCc1ccccc1)C(=O)O (configuration not stated)	0.45	2.55
CCOc1ccc(-c2nnc(SCC(=O)N(CC)CC)n2N)cc1	0.06	1.17
O=C(Nc1cccc(S(=O)(=O)N2CCCC2)c1)c1cc(-c2ccccn2)nc2ccccc12	0.56	1.49
Cc1cc(C(=O)N(C)Cc2c(F)cccc2Cl)c2ccccc2n1	2.57	0.39
CCOC(=O)CN1C(=O)C(C)(C)Oc2ccc(C(=O)NC(C)(C)CC)cc21	0.16	1.04
CCOc1ccc(Nc2ncnc3ccc([N+](=O)[O-])cc23)cc1	2.55	-0.62
O=C(NCc1cccnc1)/C(=N\O)c1ccccc1	0.01	1.08
O=C(NC12CC3CC(CC(C3)C1)C2)N1CCN(c2ccccc2)CC1	0.78	0.63
CNC(=O)c1c(NC(=O)c2ccc3ncsc3c2)sc(C)c1C	0.64	-1.58
CC(C)CC(=O)N1CCN(c2ccc(NC(=O)c3ccco3)cc2)CC1	2.23	-2.32
COc1cccc(CN2CCNC(=O)C2CC(=O)NCc2cn3cccc(C)c3n2)c1OC (configuration not stated)	0.56	0.75
O=C(Nc1ccc(F)cc1)N1CCN(c2nc3ccccc3s2)CC1	0.61	0.14

Fetched by compound from the entries so far, 4 records:
SMILES	KCNQ2 pot	KCNQ2 pot baseline
Cc1cc(C(=O)N(C)Cc2c(F)cccc2Cl)c2ccccc2n1	2.57	0.39
O=C(Nc1cccc(S(=O)(=O)N2CCCC2)c1)c1cc(-c2ccccn2)nc2ccccc12	0.56	1.49
CNC(=O)c1c(NC(=O)c2ccc3ncsc3c2)sc(C)c1C	0.64	-1.58
CCOC(=O)CN1C(=O)C(C)(C)Oc2ccc(C(=O)NC(C)(C)CC)cc21	0.16	1.04

(next part)
SMILES	KCNQ2 pot	KCNQ2 pot baseline
O=C(Cn1nc(Cc2cccnc2)c2ccccc2c1=O)NCc1ccc(F)cc1	0.06	-2.57
COc1ccc(C(=O)N(NC(=O)Oc2ccccc2)C(C)(C)C)cc1	0.93	0.88
O=C(Nc1ccc(F)cc1)Nc1ccccc1C(=O)NCCN1CCNC1=O	0.66	0.11
C=CCn1c(=N)c(S(=O)(=O)c2ccc(C)c(C)c2)cc2c(=O)n3ccccc3nc21	0.76	1.19
COc1ccc(-c2cc(C(F)(F)F)nc(SCCC(=O)N3CCOCC3)n2)cc1	1.28	2.52
CC(C)OC(=O)CSc1nnc(-c2cnccn2)n1-c1ccc(Cl)cc1	1.51	2.21
O=C(O)C(Oc1ccc2c(c1)oc(=O)c1ccccc12)c1ccccc1 (configuration not stated)	0.52	-0.12
COc1ccccc1C1=NOC(COC(=O)c2ccc([N+](=O)[O-])cc2)C1 (configuration not stated)	0.61	0.01
Cc1ccnc(N2CCC(C(=O)Nc3nnc(C)s3)CC2)n1	0.22	-0.04
c1ccc(COc2ccc(OCCCCN3CCCCC3)cc2)cc1	2.48	0.03

Full records, quoted from the list:
Results for COc1ccc(-c2cc(C(F)(F)F)nc(SCCC(=O)N3CCOCC3)n2)cc1 : KCNQ2 pot = 1.28; KCNQ2 pot baseline = 2.52
Results for Cc1ccnc(N2CCC(C(=O)Nc3nnc(C)s3)CC2)n1 : KCNQ2 pot = 0.22; KCNQ2 pot baseline = -0.04

Continuation.
SMILES	KCNQ2 pot	KCNQ2 pot baseline
CCCc1cc(C(=O)Nc2cc(C)on2)no1	3.43	1.18
CC1CCN(C(=O)Cn2c3ccccc3c3nc4n(c(=O)c32)CCS4)CC1	0.06	-0.06
Cc1ccc(-n2c(SCC(=O)NCCN3C(=O)CSC3=O)nnc2-c2ccccc2)cc1	0.5	0.63
NC(=O)CC(NC(=O)Cc1ccc(Br)cc1)c1ccc(N2CCC(N3CCCCC3)CC2)c([N+](=O)[O-])c1 (configuration not stated)	0.01	0.79
O=C(CSc1nncs1)Nc1ccc(Cl)cn1	0.46	0.97
CCCC(=O)Nc1cc(-c2nnc(OC)c3ccccc23)ccc1N1CCCCC1	0.55	-2.13
CCOC(=O)N1CCC(NS(=O)(=O)c2cc(Br)cc3c2N(C(=O)CC)CC3)CC1	2.55	0.79
O=C(NNC(=O)c1ccccc1Br)c1ccc2nc[nH]c2c1	0.69	-2.41
Cc1cc(=O)[nH]c(N/N=C/c2ccc(Cl)cc2Cl)n1	2.09	-0.27
CC1CCCN(Cc2nc3c(c(=O)n(C)c(=O)n3C)n2CC(=O)c2ccccc2)C1 (configuration not stated)	1.19	-0.92
COC(=O)c1ccc(S(=O)(=O)N2CCCN(Cc3ccc(F)cc3)CC2)n1C	2.9	0.89
O=C(CC1C(=O)NCCN1C(=O)Nc1ccccc1)Nc1ccc(F)cc1 (configuration not stated)	0.22	1.28
COc1cc2c(c(OC)c1OC)-c1c(cc3c(c1OC)OCO3)C[C@H](C)[C@@](C)(O)C2	0.12	-0.67
COc1ccc(C2C(=O)N(C3CCCCCC3)CC(=O)N2Cc2ccccc2)cc1OC (configuration not stated)	0.2	-0.22
Cc1ccc(OCCNC(=O)Cc2ccc(F)cc2)cc1	0.81	0

Source: PubChem BioAssay (Johns Hopkins Ion Channel Center)

These rows are one share of the data; the hit share may differ from the screen's.
